Assay outcomes as filed in PubChem.
Measles inh = inhibitors of measles virus growth in infected cells; AID 745; 33,000 tested, 0.1% active; z-score (no concentration beside the values); infected Vero cells, GFP fluorescence, 64 h; active compounds read low;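 active = z-score under -3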;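 also: score is relative to mean and SD of the compound wells of a plate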
Starred values were filed as active, the others as inactive. Not all compounds are listed; the hit share may differ from the screen's.

SMILES	Measles inh
O=C(CC1N=C2c3ccccc3N=C(SCc3ccc(F)cc3)N2C1=O)NC1CCCCC1 (stereo not drawn)	-1.5
COc1cc(C(c2c(C)[nH][nH]c2=O)c2c(C)[nH][nH]c2=O)ccc1OC(=O)c1ccccc1F	-1.8
